Vif TR-FRET: inhibitors of Vif binding to APOBEC3G peptide, primary screen, biochemical, TR-FRET, GST-Vif 1-94, biotin-A3G peptide, dose response retest (AID 1117319) | actives 0.57% (n = 260,000) | inhibition, %, or IC50 in µM where a hit was titrated | TR-FRET GST-Vif / biotin-A3G peptide binding; higher % means a stronger effect; test concentration not given here; strong numbers were not always called active;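 active = above the screen mean plus three standard deviations and confirmed in dose response; inconclusive = results disagree or hit not tested in dose response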;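 also: Vif residues 1-94 fused to GST binding biotinylated APOBEC3G peptide 110-148; 0% = full assay without inhibitor and 100% = GST in place of GST-Vif; retest series ran down from 100 µM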
FGF22 binding: binders of recombinant human FGF22 by thermal shift. SYPRO orange fluorescence; percent of sucrose octasulfate shift, DMSO zero. calls only at 9.99 µM. actives 1.5% (n = 340,000). AID 651658;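 active = melting point raised past a set limit in the mean and every replicate; inconclusive = no clear call; three in four hits are not shown here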
Target sequence (Q9HCT0 whole entry, looked up): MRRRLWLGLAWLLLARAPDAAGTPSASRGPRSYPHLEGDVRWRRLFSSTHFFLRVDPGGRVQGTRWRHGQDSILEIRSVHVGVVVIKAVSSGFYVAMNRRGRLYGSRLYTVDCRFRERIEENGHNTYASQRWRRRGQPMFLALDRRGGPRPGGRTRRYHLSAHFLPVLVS
AF4-AF9 inh: MLL-AF4/AF9 protein interaction inhibition; P42568; AlphaScreen, biotin-AF4 peptide binding to FLAG-AF9; inhibition, % at 10 µM; actives 0.47% (n = 350,000); AID 651704;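 active = every replicate reaching a set inhibition limit, whatever the replicate mean, cut at about 25% in these data; inconclusive = mean inhibition reaches that limit but some replicates miss it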;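 also: 0% = plate neutral control median and 100% = total signal loss; the record names both 10 and 1 µM as test concentration; the first replicate is given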
ALR inh: inhibitors of human sulfhydryl oxidase ALR. inhibition, % (no concentration beside the values). actives 3.8% (n = 290,000). purified ALR, DTT oxidation, H2O2 HRP-luminol luminescence. P55789;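 active = mean and each replicate at 75% or more; inconclusive = only one of the two met; inactive = neither met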;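 also: stock transfer was 7.5 nL into about 7.5 µL; 0% = neutral wells and 100% = wells with inactivated enzyme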
Target sequence (P55789 whole entry, looked up): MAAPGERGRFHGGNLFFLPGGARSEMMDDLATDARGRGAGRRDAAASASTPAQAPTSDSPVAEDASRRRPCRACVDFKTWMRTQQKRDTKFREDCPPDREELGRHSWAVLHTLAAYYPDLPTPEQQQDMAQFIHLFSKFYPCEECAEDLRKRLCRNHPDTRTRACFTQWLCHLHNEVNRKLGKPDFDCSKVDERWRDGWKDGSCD
HNF4A DNA FP: change in binding of human HNF4 alpha to DNA | actives 0.3% (n = 360,000) | P41235 | HNF4a-FITC DNA binding, fluorescence polarization, 1 h | activity change, % at 10 µM; in the data active = activity change above about 30%, passing the limit was not always enough;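 also: controls were the assay level and a saturating level of protein; the project sought stronger binding though the title names inhibitors; some compounds called inactive have numbers as strong as hits; positive values seem to mean higher polarization but the record does not say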
Target sequence (P41235 whole entry, looked up): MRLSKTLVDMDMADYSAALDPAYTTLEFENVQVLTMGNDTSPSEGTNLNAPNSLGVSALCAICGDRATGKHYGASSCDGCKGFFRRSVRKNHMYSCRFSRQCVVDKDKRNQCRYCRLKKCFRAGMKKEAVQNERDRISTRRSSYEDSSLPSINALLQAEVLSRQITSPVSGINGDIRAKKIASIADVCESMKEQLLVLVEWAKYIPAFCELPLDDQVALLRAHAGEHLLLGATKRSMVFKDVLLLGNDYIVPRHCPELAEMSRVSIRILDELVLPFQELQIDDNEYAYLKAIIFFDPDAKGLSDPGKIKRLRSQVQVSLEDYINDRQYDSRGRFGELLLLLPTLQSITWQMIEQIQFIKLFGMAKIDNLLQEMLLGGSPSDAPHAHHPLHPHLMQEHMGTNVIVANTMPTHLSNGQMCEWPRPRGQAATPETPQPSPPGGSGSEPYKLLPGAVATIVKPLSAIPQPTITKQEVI
Ecoli growth: E. coli growth inhibition. Escherichia coli growth, OD600, 23 h; active compounds read low. OD600 absorbance (test concentration not listed). actives 0.21% (n = 330,000);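 active = OD600 absorbance below the run mean of sample wells minus 3.6 SD, in any replicate, cut at about 0.56 in these data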;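 also: stock transfer was 300 nL into about 60 µL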
rRNA inh HTS: inhibits bacterial ribosomal RNA function over humanized ribosomes; E. coli WT GFP vs humanized-ribosome RFP mutants, fluorescence, 24 h; active compounds read low; DMSO median 0, no signal -100; GFP signal change (wild-type ribosome), % (no concentration beside the values); actives 1.6% (n = 350,000); AID 720706;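 active = significant combined selectivity score with lowered wild-type GFP, culture density cut under 30%, mutant RFP and density less affected; inactive = any of these conditions unmet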; also: one replicate is shown; some compounds called inactive have numbers as strong as hits
rRNA inh HTS OD600: recorded beside rRNA inh HTS, whose call it bears; OD600 change, %; measured here: OD600 growth;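 optical density of the mix in the first replicate; 0 = DMSO median and -100 = no signal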
rRNA inh HTS RFP: further read-out of rRNA inh HTS, marked with its call; RFP signal change, %; measured here: RFP humanized mutant strains;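 first replicate; 0 = DMSO median and -100 = no signal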
The depositor's hits bear a star; i = inactive; ? = inconclusive; . = no result given; & = joins results of further samples.

SMILES	Vif TR-FRET	FGF22 binding	AF4-AF9 inh	ALR inh	HNF4A DNA FP	Ecoli growth	rRNA inh HTS	rRNA inh HTS OD600	rRNA inh HTS RFP
CCC(=O)N1CC2(C1)[C@@H](c1ccccc1)[C@@H](CO)N2Cc1cccc(Cl)c1	.	i	-2.7	.	.	.	-6	-5	1.4
COc1cc(CN2CCC(C(=O)N3CCCC(C)C3)CC2)cc(Br)c1O (stereo not drawn)	-1%&-12%	.	.	24	-5.2	0.69	.	.	.
O=C(COc1ccc(Br)cc1CO)Nc1ccc(S(=O)(=O)N2CCCCC2)cc1	1%	i	3.1	-2	-3.3	0.61	-11	-34	4.2
CCCN1Cc2cccc(C(=O)NC(CC(=O)OCC)c3ccc(OC(C)C)cc3)c2C1=O (stereo not drawn)	-5%	i	-2.9	-2	-1.5	0.71	4	3	3.5
O=C(Nc1ccc(C(=O)O)cc1)/C(=C\c1ccccc1)NC(=O)c1ccccc1	3%	i	1.2	-3	-0.8	0.69	-9	4	0.2
N#CC(c1ccc(Cl)cc1)c1ccc2c(C(F)(F)F)cc(C(F)(F)F)nc2n1 (stereo not drawn)	20%	.	.	-3	3.5	0.68	.	.	.
CSc1nc(=S)n(-c2ccc([N+](=O)[O-])cc2)c(C)c1C(C)=O	-2%	i	-13	0	-3.1	0.71	-3	3	-1.3
CCc1cc2ccc(C)cc2nc1SCC(=O)NNC(=O)c1ccco1	.	i	-2.7	8	-4.0	0.66	-29	-45	-11
CC=Cc1ccc2n(c1=O)C[C@H]1[C@H](CO)[C@@H](C(=O)NCCCN(C)C)[C@@H]2N1C(=O)c1ccccc1F (mixture of isomers)	.	i	0.1	.	.	.	3	-3	-2.6
O=C1C=C(/C=C/c2ccccc2)C[C@@H](c2ccc(F)cc2)C1	.	i	8.6	0	1.3	.	-30	-49	-4.3

Reprinted at random: 6 records from the list.
SMILES	Vif TR-FRET	FGF22 binding	AF4-AF9 inh	ALR inh	HNF4A DNA FP	Ecoli growth	rRNA inh HTS	rRNA inh HTS OD600	rRNA inh HTS RFP
CCCN1Cc2cccc(C(=O)NC(CC(=O)OCC)c3ccc(OC(C)C)cc3)c2C1=O (stereo not drawn)	-5%	i	-2.9	-2	-1.5	0.71	4	3	3.5
COc1cc(CN2CCC(C(=O)N3CCCC(C)C3)CC2)cc(Br)c1O (stereo not drawn)	-1%&-12%	.	.	24	-5.2	0.69	.	.	.
CCc1cc2ccc(C)cc2nc1SCC(=O)NNC(=O)c1ccco1	.	i	-2.7	8	-4.0	0.66	-29	-45	-11
N#CC(c1ccc(Cl)cc1)c1ccc2c(C(F)(F)F)cc(C(F)(F)F)nc2n1 (stereo not drawn)	20%	.	.	-3	3.5	0.68	.	.	.
CC=Cc1ccc2n(c1=O)C[C@H]1[C@H](CO)[C@@H](C(=O)NCCCN(C)C)[C@@H]2N1C(=O)c1ccccc1F (mixture of isomers)	.	i	0.1	.	.	.	3	-3	-2.6
O=C(COc1ccc(Br)cc1CO)Nc1ccc(S(=O)(=O)N2CCCCC2)cc1	1%	i	3.1	-2	-3.3	0.61	-11	-34	4.2

Going on with the list:
SMILES	Vif TR-FRET	FGF22 binding	AF4-AF9 inh	ALR inh	HNF4A DNA FP	Ecoli growth	rRNA inh HTS	rRNA inh HTS OD600	rRNA inh HTS RFP
Cc1cc(C)c(C2C(C#N)=C(N)Oc3n[nH]c(C)c32)cc1CN1CCOCC1 (stereo not drawn)	6%	i	1.0	6	1.1	0.74	8	1	-1.5
O=C(CN1CCN(C(=O)c2cccs2)CC1)Nc1ccc(Br)cc1	1%	.	.	.	2.2	0.72	.	.	.
COc1ccc(/C=C2\SC(=O)N(CCCC(=O)Nc3ccc(C(=O)O)cc3)C2=O)cc1OC	-2%	i	0.2	.	-1.8	0.73	3	3	0.5
O=C(c1ccc(N2CCOCC2)cc1)N1CCCC(Nc2ccccc2)C1 (stereo not drawn)	.	i	0.3	73	-0.9	0.7	0	2	-1.1
COC(=O)c1[nH]c2ccccc2c1NC(=O)CN1CCCc2ccccc21	6%	.	.	-4	9.8	0.7	.	.	.
Cc1ccc(N2C(=O)CC(Sc3cccs3)C2=O)cc1 (stereo not drawn)	9%	i	-0.8	56	1.4	0.62	-1	1	-2.3
CCc1cc2c(=O)n(N)c(CCC(=O)O)nc2s1	29%	.	.	-4	-2.3	.	.	.	.
COc1cc2c(cc1OC)C(=NO)CCCC2	.	i	-3.0	.	29	.	-2	1	-2.6
Cc1cc(C)nc(N2CCC(C(=O)NCCc3ccc(F)cc3)CC2)n1	1%	.	.	-3	1.9	0.67	7	14	-0.9
CCc1c(O)nc(SCC(=O)Nc2c(C)cccc2C)n(-c2ccc(F)cc2)c1=O	-4%	i	-1.6	.	-2.0	.	3	4	-0.9
Cc1ccc(NC(=O)CSCC(=O)Nc2cccc3ncccc23)cc1	5%	i	-0.4	-13	4.8	0.68	5	9	-0.8
CC(C)NC(=O)N(C)C[C@@H]1OCCCC[C@H](C)Oc2ccc(NS(=O)(=O)c3cccs3)cc2C(=O)N([C@@H](C)CO)C[C@@H]1C	.	i	-1.5	.	.	.	0	2	0.6
CC(C)NC(=O)N1[C@@H]2CN(C(=O)C3CC3)c3ccccc3[C@@H]2[C@@H]1CO	.	i	4.7	.	.	.	4	3	-3.0
CC(C)NC(=O)CN(C(=O)CCC(=O)Nc1nccs1)c1ccc2c(c1)OCO2	.	i	0.8	-24	-0.6	0.66	7	7	-0.5
CN1CCN(C(=O)OC2CC3CC2[C@H]2CCCCN2C3=O)CC1 (stereo partly drawn)	.	i	-0.2	.	2.0	.	34	24	7.2
CCn1nc(C)c(CN2CCC(Oc3ccc(C(=O)N4CCCC4)cc3)CC2)c1C	.	i	0.3	-11	-3.0	0.72	10	14	-2.3
CCCNC(=O)C[C@@H]1CC[C@@H]2[C@@H](COc3ccc(NC(=O)NC(C)C)cc3C(=O)N2C)O1	.	i	-0.7	.	.	.	1	2	-0.6
COC(=O)Nc1sccc1C(=O)Nc1sccc1C(=O)OC	6%	.	.	2	27	0.75	.	.	.
COc1cccc(-c2ccc([C@H]3[C@H]4CN(C(=O)c5cccnc5)CC(=O)N4[C@H]3CO)cc2)c1	.	i	21	.	.	.	1	-12	-4.1
CCOc1ccccc1C1C(C#N)=C(N)Nc2onc(-c3ccccc3)c21 (stereo not drawn)	4%	.	.	6	-0.5	0.71	.	.	.
Cc1cccc(C)c1NC(=O)CN(C)C(C)C(=O)NCC(=O)Nc1ccc(F)c(F)c1F (stereo not drawn)	-11%	i	2.2	-3	0.5	0.69	6	5	-0.8
CC1(C(=O)NS(=O)(=O)c2cccs2)CCN1C(=O)c1ccco1 (stereo not drawn)	.	i	-2.8	.	5.8	.	5	4	-18
CCOC(=O)CSc1nc2sc3c(c2c(=O)[nH]1)CC(C)(CC)OC3 (stereo not drawn)	-2%	.	.	-7	0.8	0.72	.	.	.
CC(C)CCNC(=O)c1ccc2c(Cl)c3c(nc2c1)CCC3	-1%	i	-4.5	-1	-3.4	0.64	-24	-27	8.5
C=CCNC(=O)/C(C#N)=C/c1c(N(Cc2ccccc2)Cc2ccccc2)nc2ccccn2c1=O	-1%	i	13	-33	-0.1	.	-13	-22	-1.3
C=CCNC(=O)c1onc(CSc2ccccn2)c1C(=O)NCC=C	-5%	i	0.4	2	-3.3	0.67	3	6	-1.1
O=[N+]([O-])c1cccn2cc(-c3ccc(Br)cc3)nc12	?	i	3.2	1	4.1	0.66	4	4	2.2
C[C@H]1CCCCO[C@@H](CN(C)C)[C@@H](C)CN([C@@H](C)CO)C(=O)c2cc(NS(C)(=O)=O)ccc2O1	.	i	-1.1	.	.	.	4	2	-2.5
CC(=O)c1ccccc1Oc1cc(NN2CCCCC2)c([N+](=O)[O-])cc1[N+](=O)[O-]	.	i	-11	.	-4.9	0.72	19	10	-2.0
Cc1cccc(C)c1NC(=O)C1(C)CSCC(=O)N1Cc1cccs1 (stereo not drawn)	.	i	2.6	.	1.5	.	0	8	-2.8
CC1CCCCC1NC(=O)c1ccc(-n2cncn2)c([N+](=O)[O-])c1 (stereo not drawn)	6%	i	-0.4	-8	0.2	0.68	6	7	0.5
COc1ccc(CNC(=O)CCNS(=O)(=O)c2ccc(C)cc2)cc1	-1%	.	.	-6	-2.5	0.76	.	.	.
O=C(COc1ccccc1Cl)N1CCCC1	17%	.	.	-32	-0.1	0.69	.	.	.
Cc1nc(C)c(-c2ccc(SCC(=O)Nc3ccc(C)c(Cl)c3)nn2)s1	-28%	i	0.1	41	-0.4	0.74	13	13	15
N#CC(C#N)=Cc1ccc(-c2ccc(S(=O)(=O)N=C(N)N)cc2)o1	.	i	2.4	-6	3.2	.	12	-5	3.2
COc1cc(C(=O)OCC(=O)N(C)c2ccccc2)cc(OC)c1OC	.	i	-2.0	.	2.9	0.65	-4	0	-2.7
Cc1cccnc1Oc1ncccc1N	.	i	-5.3	-29	-0.4	0.64	10	10	0.5
CCOC(=O)CN(c1cccc(C(C)=O)c1)S(C)(=O)=O	-1%	i	0.9	-34	1.0	0.66	18	7	-1.5
CCCCN1C(=O)NC(NC(C)=O)(C(F)(F)F)C1=O (stereo not drawn)	9%	.	.	-6	-2.2	0.74	.	.	.
O=C(CCCN1C(=O)/C(=C/c2ccccc2Cl)SC1=S)Nc1ccccn1	0%	.	.	-2	4.6	0.72	.	.	.
c1ccc(-n2ncc3c2ncn2cnnc32)cc1	3%	.	.	-1	-2.9	0.71	.	.	.
Cc1cc(C)n2nc(SCC(=O)c3cc(C)n(-c4cc(C)on4)c3C)nc2n1	7%	.	.	8	-2.0	0.63	.	.	.
Cc1cc([N+](=O)[O-])c(C)cc1-c1ccc(/C=N/NC(=O)Cn2nnnc2N)o1	9%	i	-1.4	18	-0.1	.	17	9	-2.3
CN1c2ccc(Br)cc2[C@H]2[C@H](CCN2S(=O)(=O)c2ccccc2F)[C@@H]1CO	.	i	-1.0	.	.	.	-3	-24	1.5
CCCOc1ccc(C(C(=O)OCCN(CC)CC)c2ccccc2)cc1 (stereo not drawn)	15%	.	.	-11	4.4	0.74	.	.	.
COc1ccc(N2CCN(Cc3nnnn3C3CCCCC3)CC2)cc1	13%	i	-0.8	23	0.8	0.69	0	-4	-11
NC(=O)NC(=O)COC(=O)c1sc2ccccc2c1Cl	-6%	i	3.8	-8	-1.8	0.71	8	1	-4.6
CC(=O)N(C)C[C@@H]1Oc2cc(C#CC3CCCC3)ccc2S(=O)(=O)N([C@H](C)CO)C[C@H]1C	.	i	3.8	.	.	.	5	-15	2.0
O=C(Nc1nnc(S(=O)(=O)N2CCOCC2)s1)c1ccc(F)cc1	.	i	-3.7	-3	1.6	0.78	3	-5	-7.5
COc1ccc(S(=O)(=O)N(C)C[C@H]2Oc3ccc(N(C)C)cc3CC(=O)N([C@@H](C)CO)C[C@H]2C)cc1	.	i	1.4	.	.	.	0	7	-0.4
CC1(C(=O)NS(=O)(=O)c2cccc(Cl)c2)CCN1C(=O)CC1CCCCC1 (stereo not drawn)	.	i	-2.7	.	1.6	.	-9	-5	2.8
O=C(NCCc1cccnc1)c1cc(COc2ccc(F)cc2Cl)on1	.	i	-0.5	-7	4.1	.	-2	-1	0.4
O/N=C(\CN1CCCCC1)c1ccccc1	-10%	i	-0.1	4	-2.7	.	13	13	-2.5

Compound activity from PubChem BioAssay.

The list is partial; the hit share may differ from the screen's.
